# Screens deposited in PubChem BioAssay by ICCB-Longwood Screening Facility, Harvard Medical School.
# HCMV NEC inh: inhibitors of HCMV UL50-UL53 nuclear egress complex interaction. HTRF UL50-UL53 interaction, normalized percent inhibition. inhibition, % (test concentration not listed). 0.15% of 190,000 active;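 active = both replicates at 50% or more, plus weaker picks with an unusually low signal ratio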;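 note: stock transfer was 100 nL into about 20 µL; 0% = negative control wells and 100% = wells with untagged competitor protein; inactives centre near -12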
# GIV Gai3 FP: inhibitors of GIV GBA-motif binding to rat Galpha-i3; Galpha-i3/FITC-GIV peptide fluorescence polarization, 90 min; active compounds read low; scaled: aluminum fluoride 0%, vehicle 100%; percent of control (FP), % (concentration not given with the values); 0.42% of 210,000 active; AID 1224905;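 active = replicate mean at 85% of control or lower, very high polarization wells dropped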;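 note: wells of about 15 µL received 100 nL stock; the first replicate is given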
# Target sequence (P08753 whole entry, looked up): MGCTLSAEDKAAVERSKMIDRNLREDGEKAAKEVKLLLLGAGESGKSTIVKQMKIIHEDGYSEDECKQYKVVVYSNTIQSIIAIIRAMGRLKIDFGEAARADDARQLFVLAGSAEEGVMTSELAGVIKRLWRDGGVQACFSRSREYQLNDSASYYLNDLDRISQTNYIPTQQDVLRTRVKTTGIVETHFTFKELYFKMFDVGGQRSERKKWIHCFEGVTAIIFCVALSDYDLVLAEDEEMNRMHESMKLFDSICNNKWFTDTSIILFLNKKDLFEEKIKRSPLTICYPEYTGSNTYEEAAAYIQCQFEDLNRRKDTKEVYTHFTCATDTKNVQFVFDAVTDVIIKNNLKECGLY
# Sa growth 42C: inhibitors of Staphylococcus aureus growth at 42 °C; AID 720641; 0.53% of 170,000 active; relative growth, % (concentration not given with the values); S. aureus RN4220 growth, OD600, 20 h; active compounds read low;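 active = growth at 42 °C up to 50% and 20 or more points under that at 30 °C, or under 10% at both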;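 note: 300 nL library stock went into each well; scaled to the means of positive and negative controls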
# Sa growth 42C second temp: further read-out of Sa growth 42C, marked with its call; relative growth, %; measured here: growth at 30 °C;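 optical density after 20 h as mean of two plates; 100% = untreated growth and lower means inhibition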
# * = called active by the depositor; / = no result given; & = joins results of further samples.
compound	GIV Gai3 FP	Sa growth 42C second temp	Sa growth 42C	HCMV NEC inh
COc1cccc(C(=O)Cn2c(=O)n(CCC(=O)NC3CCCC3)c(=O)c3cc(OC)c(OC)cc32)c1	99	/	/	-32
COc1ccc(CC(=O)NCc2nn(-c3ccccc3)nc2C)cc1OC	105	86	89	-14
CCCC(C(=O)Nc1cc(OC)ccc1OC)N1Cc2ccccc2C1=O (stereo unspecified)	107	/	/	-2
CSC(=CC(=O)c1ccccc1F)SC	101	68	88	-50
CC(C)=NNC(=O)c1nnn(-c2nonc2N)c1CN1CCOCC1	100	96	100	-20
O=c1c2ccccc2nnn1CSc1nncn1-c1ccccc1	/	98	104	-26
Cc1ccc(Cn2c(-c3cscn3)nc3ccccc32)cc1	/	96	115	-16
CCn1c(=N)c(C(=O)NC2CCCC2)cc2c(=O)n3ccccc3nc21	111	89	115	-84
COc1ccc(CNC(=O)CCCN2C(=O)CCn3nc(C)cc32)cc1	112	/	/	4
COCCN1C(=O)c2c(C)nc3ccccc3c2C1=O	102	/	/	-49
CCc1c(C)n2nc(C)cc2[nH]c1=O	101	93	92	3
Cc1ccc(C(C)C)c(OCCSc2nc(-c3ccccc3F)nc3cc(=O)[nH]n23)c1	97	87	101	/
CN1C(=O)/C(=C\C=C\c2ccc(N(C)C)cc2)SC1=S	126	80	84	/
O=C(COc1ccccc1)NCC1COc2ccccc2O1 (stereo unspecified)	106	94	107	6
CCC(C)NC(=O)CCCn1nc(-c2ccccc2)c2cc(Cl)ccc21 (stereo unspecified)	99	/	/	-1
CN(Cc1ccco1)c1nc(-c2ccc(Cl)cc2)nc2ccccc12	108	60	86	-28
O=C1CCCc2[nH]c(=O)c(C(=O)Nc3cccc(Cl)c3)cc21	106	/	/	-28
Cn1cc(CC(=O)Nc2ccc(F)cc2F)c2ccccc21	100	98	102	4
COc1ccccc1-n1c(=O)c2cc3c(=O)n(-c4ccccc4OC)c(=O)c3cc2c1=O	100	87	89	-8
O=C(CCS(=O)(=O)c1ccc2c(c1)NC(=O)CO2)Nc1cccc(C(F)(F)F)c1	103	100	102	/
CC(C)OCCn1cnc2sc3c(c2c1=O)CCCC3	104	93	104	-30
COc1cc2c(=O)n(Cc3ccc(C(=O)NC4CCCC4)cc3)c(=O)n(Cc3ccc(F)cc3)c2cc1OC	103	/	/	-29
O=C(c1ccccc1Br)N(Cc1ccccc1F)C1CCS(=O)(=O)C1 (stereo unspecified)	108	89	95	5
CN(C)c1ccc(CNC(=O)C2CCN(c3nnc(-n4cccc4)s3)CC2)cc1	101	88	94	/

# Structures shown so far that have an aryl thioether with sulfur outside any ring, in the order listed:
compound	GIV Gai3 FP	Sa growth 42C second temp	Sa growth 42C	HCMV NEC inh
O=c1c2ccccc2nnn1CSc1nncn1-c1ccccc1	/	98	104	-26
Cc1ccc(C(C)C)c(OCCSc2nc(-c3ccccc3F)nc3cc(=O)[nH]n23)c1	97	87	101	/

# (continued)
compound	GIV Gai3 FP	Sa growth 42C second temp	Sa growth 42C	HCMV NEC inh
O=C(Nc1ccc(N2CCOCC2)cc1)C1CCCN(c2ccnc(-c3ccc(F)cc3)n2)C1 (stereo unspecified)	109	/	/	-31
CC(C)CSc1oc(-c2ccco2)nc1S(=O)(=O)c1ccc(Br)cc1	104	87	89	2
Cc1cc(Oc2ccc(=O)n(C)n2)nc(SCC(N)=O)n1	100	93	109	/
C=CCn1c(SC)nnc1-c1ccc(OC)c(OC)c1	/	96	96	6
COc1ccc(-n2[nH]c(C)c(C(C)=NCCN3CCOCC3)c2=O)cc1	106	74	112	-12
CC(C)(C)c1ccc(C(=O)Nc2cccc(-c3cn4cccnc4n3)c2)cc1	108	60	107	/
CCC(CC)C(=O)Nc1ccc(C)cc1C	109	95	109	-6
C=Cc1ccc(Cn2c(C)c(CNCCc3ccccc3C)c(C(=O)O)c2C)cc1	101	58	87	-10
O=C(O)CCC(=O)Nc1ccncc1	98	90	86	-15
CC(C)S(=O)(=O)c1csc(C(=O)NN)c1Cl	103	86	95	-20
O=C(c1ccc(N2CCCS2(=O)=O)cc1)N1CCN(c2ccc(F)cc2)CC1	104	/	/	2
CC(C)(C)c1ccc(NC(=O)CCC(=O)O)cc1	/	89	102	-12
O=C(CN1c2ccc(F)cc2-c2ccccc2S1(=O)=O)NC1CCCC1	101	/	/	-24
CN1C(=O)/C(=C2\SC(=S)N(NC(=O)c3ccccc3)C2=O)c2cc(Br)ccc21	99	/	/	-33
O=C(Nc1cccc(Cl)c1)Nc1ccccc1C(=O)N1CCCCC1	99	92	96	8
Cc1nn(C(=O)c2cccc(Cl)c2)c(N)c1-c1ccccc1	99	94	98	-5

# As entered above.
# GIV Gai3 FP result of CN1C(=O)/C(=C2\SC(=S)N(NC(=O)c3ccccc3)C2=O)c2cc(Br)ccc21 reads 99
# GIV Gai3 FP result of CCC(CC)C(=O)Nc1ccc(C)cc1C reads 109
# Sa growth 42C second temp result of C=CCn1c(SC)nnc1-c1ccc(OC)c(OC)c1 reads 96
# GIV Gai3 FP result of O=C(c1ccc(N2CCCS2(=O)=O)cc1)N1CCN(c2ccc(F)cc2)CC1 reads 104
# Sa growth 42C result of CN1C(=O)/C(=C\C=C\c2ccc(N(C)C)cc2)SC1=S reads 84

# The listing continues:
compound	GIV Gai3 FP	Sa growth 42C second temp	Sa growth 42C	HCMV NEC inh
O=C(OC1CCOC1=O)c1ccc(S(=O)(=O)N2CCCC2)cc1 (stereo unspecified)	/	93	89	-28
CCCN(CCC)Cc1cn2c(-c3ccc(OC)cc3)nnc2s1	105	87	98	-11
Cn1nc(NC(=O)C2CCC2C(=O)O)c2c(F)cccc21 (stereo unspecified)	107	89	90	-26
COc1cc(C2=NOC(=O)/C2=C\c2ccc(Cl)cc2Cl)cc(OC)c1OC	/	93	89	-1
COc1cc(/C=C2\CCc3ccccc3C2=O)ccc1OCCC(C)C	106	86	96	/
Cc1cc(N2CCN(c3ccccc3)CC2)n2cnnc2n1	102	95	97	5
COc1cccc(NC(=O)Cn2c(=O)n(Cc3ccc(C(=O)NCc4ccc(C)cc4)cc3)c(=O)c3ccccc32)c1	102	96	88	-41
CCOc1ccccc1NC(=O)c1cc(=O)c2ccc(C)cc2o1	101	90	108	-9
COc1ccc(C2=C(C)C(=O)N(Cc3ccc(C(=O)NCc4ccc(C)cc4)cc3)S2(=O)=O)cc1	98	89	98	/
COc1cc(Br)c(CC(=O)N2CCOCC2)cc1OC	/	88	104	-2
CN(C(=O)c1cccc(N2C(=O)C(C)(C)CS2(=O)=O)c1)C1CCS(=O)(=O)C1 (stereo unspecified)	106	/	/	-11
CCN(CC)CCn1c(SCC(=O)Nc2cccc(OC)c2)nc2c(sc3ccccc32)c1=O	103	87	120	/
COc1ccc(-c2cc(C(F)F)n3ncc(C(=O)Nc4cc(C)on4)c3n2)cc1	100	81	103	-21
CC(C)N1C(=O)CCC1C(=O)N1CCCCC1 (stereo unspecified)	113	95	108	-1
Cc1ccc(-c2nc(-c3ccc(OCC(F)(F)F)nc3)no2)cc1	97	76	105	5
COc1ccc(-c2cc(OC(=O)c3cccc(Cl)c3)c3c(C)oc(C)c3c(=O)c2)cc1OC	109&130	81	109	-55&-44
CCSc1nnc2c(n1)OC(c1cccc(OC)c1OCC(=O)O)Nc1ccc(Br)cc1-2 (stereo unspecified)	100	78	93	-43
CCc1ccc(C2c3c(n[nH]c3C)C(=O)N2c2ccc(C)cc2)cc1 (stereo unspecified)	104	88	111	-21
CCOC(=O)N1CCN(Cc2nc3c(c(=O)n(C)c(=O)n3C)n2CC)CC1	104	103	103	12
CCOC(=O)c1cc(S(=O)(=O)N2CCCC2C(=O)NC2CCCCC2)cn1C (stereo unspecified)	104	/	/	-6
O=C1S/C(=C/c2ccccc2)C(=O)N1c1ccccc1	98	98	94	-20
Cc1cc(C)n(-c2nc(CC(=O)Nc3nccs3)cs2)n1	103	/	/	-25
COc1ccc(NC(=O)c2cn3ccc(C)cc3n2)cc1	106	78	105	-14
Cc1cc(N2C(=O)c3c(c(C)n(C)c3C)C2C(=O)NC2CCC(C)CC2)ccc1Br (stereo unspecified)	106	90	117	/
CCC(=O)N(Cc1cccnc1)Cc1cc2cc(OC)ccc2[nH]c1=O	103	90	92	-33
COC(=O)c1ccc2nc[nH]c2c1	95	85	107	-11
Cc1ccccc1NC(=O)CN1C(=O)CCS(=O)(=O)c2ccccc21	98	/	/	-18
Cc1ccc(NC(=O)CN(C)CC(=O)Nc2ccccc2C(=O)NC2CCCC2)cc1	/	92	102	-4
CC(NC(=O)c1cc2ccccc2o1)c1ccccc1 (stereo unspecified)	104	95	91	/
O=C(CN1c2ccccc2S(=O)(=O)c2ccccc21)NCc1ccccc1	102	85	105	-12
O=C(CCCc1nc(-c2cccnc2)no1)Nc1ccc(C(=O)O)cc1	107	/	/	-19
COC(=O)c1cc(S(=O)(=O)N(C)CC(=O)NC2CC2)cn1C	112	/	/	-4
Cn1c(=O)oc2cc(S(=O)(=O)CCC(=O)NCCc3ccccc3)ccc21	102	78	99	/
Cc1ccc(NCCO)cc1	102	90	110	-14
O=C(NCc1ccc(F)cc1)c1cnc(N2CCCCC2)c2ccccc12	105	101	87	/
COc1ccc(Br)c(C(=O)NC(C)(C)CO)c1	105	100	115	0
Cc1[nH]nc(-c2ccc(S(=O)(=O)N3CCOCC3)o2)c1C	111	/	/	-14
Cn1cc(C(CNC(=O)Nc2cccc(Br)c2)c2cccnc2)c2ccccc21 (stereo unspecified)	95	/	/	-28
COc1cccc(NC(=O)c2sc3nc(C)c(C(=O)Nc4ccc(C)cc4C)c(-c4cccs4)c3c2N)c1	108	102	103	11
Cc1ccc(OC(=O)CSc2nnc(-c3cccs3)o2)cc1C	101	86	109	-15
CCOC(=O)CSc1nc2c(c(=O)n1CC)C1(CCCC1)Cc1ccccc1-2	103	/	/	-1
O=C(/C=C/c1ccco1)OCc1c(Cl)cccc1Cl	/	90	114	-15
CCCCCCSc1ncc(C#N)c(N)n1	106	124	91	-9
O=C(NCc1ccc(S(=O)(=O)NCc2ccccc2)s1)c1ccccc1	102	81	90	-44
CC(NC(=O)c1ccco1)C12CC3CC(CC(C3)C1)C2 (stereo unspecified)	/	79	66	-15
CCC(C(=O)NCc1cccc(Br)c1)n1nc(C)c2c(C)n(-c3ccccc3)nc2c1=O (stereo unspecified)	100	67	85	/
CN1CCN(c2ccc(NC(=O)c3cccc(Cl)c3)cc2)CC1	105	92	84	-9
CC12CC(c3cc(Br)cc(Br)c3O1)C(C(=O)c1ccccc1)C(=O)N2 (stereo unspecified)	98	92	128	/
COC(=O)C1=NN(c2ccccc2)C2C(=O)N(c3ccccc3OC)C(=O)C12 (stereo unspecified)	102	98	110	/
COc1ccccc1N1CCN(CCCNC(=O)c2nnc(Cc3ccccc3Cl)o2)CC1	108	93	92	/
N#CC(C#N)=C(Nc1ccccc1Cl)SCc1cccc(F)c1	/	-0.5*	0.1*	-15
COc1cc(NC(=O)c2ccc3snnc3c2)cc(OC)c1	98	89	97	-15
COC(=O)c1cc2oc3ccccc3c2n1Cc1nc(-c2ccccc2)oc1C	109	85	114	/
O=C(N/C=C\n1cnc2cc(C(F)(F)F)ccc21)c1cc2c(s1)CCC2	/	93	92	-8
Cc1nn(-c2ccccc2)c2c1CC(C#N)(C(=O)c1ccc(Cl)cc1)C1CCCN21 (stereo unspecified)	/	77	117	-28
COc1cc(C2SCC(C(=O)O)N2C(C)=O)cc(Br)c1O (stereo unspecified)	97	82	98	1

# Further structures follow:
compound	GIV Gai3 FP	Sa growth 42C second temp	Sa growth 42C	HCMV NEC inh
C=CCn1c(SCc2cc(=O)oc3cc(O)ccc23)nnc1-c1ccccc1OC	/	100	96	-29
COc1ccc(-c2oc3ccccc3c(=O)c2O)cc1	/	90	99	-28
C=CCN(CC=C)C(=O)CSc1ccc2ccccc2c1	/	88	129	-47
COc1cccc(NC(=O)/C(C#N)=C/c2ccc(-c3ccc(C)cc3)o2)c1	114	97	106	-28
CN1/C(=C\C=N\NC(N)=O)C(C)(C)c2ccccc21	/	55	37	-38
CSC1=NCN(CCCO)CN1	103	94	100	-25
Cc1ccccc1-c1nn2c(=O)cc(N3CCN(S(=O)(=O)c4c(C)noc4C)CC3)nc2s1	101	/	/	-14
CC(O)CC12CC3CC(CC(C3)C1)C2 (stereo unspecified)	101	85	96	-15
CCn1c(=O)cc(SCC(=O)NCCc2ccc(OC)cc2OC)c2ccccc21	104	85	109	-22
NC(=O)c1cc2cc(Br)ccc2oc1=Nc1ccc(-c2ccccc2)cc1	100	/	/	-6
CCCCC(=O)Nc1cccc(-c2nc3ccccc3s2)c1	103	73	93	-13
O=c1cnnc(Nc2ccc(Cl)cc2)[nH]1	96	/	/	-29
CCOC(=O)Cn1c(=O)n(Cc2ccco2)c(=O)c2ccc(C(=O)NC3CCCC3)cc21	100	98	111	3
Cc1cc(C)nc(SCC(=O)NN=Cc2cccs2)n1	104	91	101	-46
Cc1cccc(Nc2nc(C)nc(N)c2S(=O)(=O)c2ccccc2)c1	103	86	90	-14
Cc1c(C(=O)N(C)C)sc2c1c(=O)n(-c1ccc(F)cc1)c(=O)n2Cc1ccccc1C#N	106	90	93	/
